GLA inh pH 4.5: alpha-galactosidase A (human) inhibition, pH 4.5; activity change, negative = inhibition, % at 105 µM; 230,000 tested, under 10 active; purified enzyme, 4-MU-alpha-Gal fluorescence, pH 4.5; AID 1467; P06280; inconclusive = small, poorly fitted or top-dose-only inhibition, or a rising curve; inactive = flat fitted curve, though single readings scatter; no compound was filed as active;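 also: 0% = full activity with enzyme and -100% = basal without enzyme; dose as in the result columns while the protocol names 77 µM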
Target sequence (P06280 whole entry, looked up): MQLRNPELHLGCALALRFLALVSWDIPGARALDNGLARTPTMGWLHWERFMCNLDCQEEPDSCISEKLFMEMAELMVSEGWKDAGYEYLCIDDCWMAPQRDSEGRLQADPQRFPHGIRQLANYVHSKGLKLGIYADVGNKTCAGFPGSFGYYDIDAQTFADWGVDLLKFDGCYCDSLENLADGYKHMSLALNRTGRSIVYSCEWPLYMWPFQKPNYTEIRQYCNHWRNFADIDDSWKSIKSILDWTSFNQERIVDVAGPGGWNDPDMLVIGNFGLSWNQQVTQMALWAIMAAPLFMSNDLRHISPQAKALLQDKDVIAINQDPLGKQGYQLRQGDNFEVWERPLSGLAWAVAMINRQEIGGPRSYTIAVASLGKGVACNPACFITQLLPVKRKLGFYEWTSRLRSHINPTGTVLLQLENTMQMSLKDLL
Rango complex inh: Rango-importin beta binding inhibition | Rango CFP/YFP FRET sensor + importin beta, 45 min | AID 540263 | Q14974 | Potency, µM (top dose mostly 92.2 µM), for the others: top-dose inhibition of complex formation | 0.031% of 340,000 active; active = rising FRET ratio curve, often small or poorly fitted; inconclusive = mostly compound fluorescence or quenching in the first reads; inactive = flat curves in all reads;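 also: potency is read from the fitted curve at half-maximal effect; 0% = DMSO wells and 100% = buffer wells lacking importin beta; nearly all actives have a fitted effect of over 15% in size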
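Inhibition scored from the CFP 486 nm/YFP 530 nm FRET ratio 45 min after adding 0.125 microM importin beta to 50 nM Rango biosensor preincubated 5 min with compound (room temperature, PBS with DTT, Tween-20, BSA). No-importin wells as positive control.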
miR-21 reporter: miR-21 reporter, rising signal; Potency, µM (top dose mostly 38.3 µM), for the others: at the highest dose reporter change, positive = more light; 340,000 tested, under 10 active; AID 2288; HeLa miR-21 FLuc reporter, luciferase, 48 h; active = well fitted rising curve with a large enough effect; inconclusive = small, poorly fitted or top-dose-only effect; inactive = no such curve, though single readings can be large or run the other way;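 also: % of control where 0% means no effect; miR-21 action dims this reporter so a rising signal means less miR-21 action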
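HeLa cells endogenously expressing miR-21, stably carrying CMV-driven firefly luciferase with a downstream miR-21 binding site, 2000 cells/well. Titrations up to approximately 40 uM, 48 hours; luciferase luminescence read.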
Rango dissoc inh: inhibitors of RanGTP-induced Rango-importin beta complex dissociation | O95149+P62826 | Biochemical FRET Rango-importin beta, RanGTP-induced dissociation | Potency, µM (series often up to 46.1 µM), without a hit: at the highest dose activity change, negative = inhibition | 0.071% of 340,000 active; active means falling FRET ratio curve, often poorly fitted, with flat reads before Ran was added; inconclusive means other falling curves, or compound fluorescence or quenching; inactive means flat or rising ratio curve;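 also: potency is read from the fitted curve at half-maximal effect; % of control where 0% means no effect; nearly all actives have a fitted effect of over 45% in size; -100% = wells without RanGTP and RCC1; the record marks most hits as doubtful in a second field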
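Quantitative HTS using a FRET biosensor: 0.1 uM Rango, 0.25 uM importin beta, 0.6 uM Ran, 2 mM GTP, 0.2 uM RCC1 final, PBS with DTT, Tween-20 and BSA. Post-read taken 45 min after Ran addition.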
An asterisk follows results filed as active; ? = inconclusive; . = not tested or not shown.

No.	Molecule	GLA inh pH 4.5	Rango complex inh	miR-21 reporter	Rango dissoc inh
1	CN(CC(=O)Nc1ccccc1C(=O)N1CCCC1)S(=O)(=O)c1ccc(Cl)cc1	1	-0.6%	-5%	11%
2	Cc1ccc(Cn2c(=O)c3c(ncn3C)n(C)c2=O)cc1	.	-2.2%	-12%	18%
3	S=C(c1ccc(-c2ccccc2)o1)N1CCCCC1	1	2.8%	-38%	24%
4	O=C(NCC1CCCO1)c1ccc(COc2ccc(F)cc2)o1 (stereo not given)	-6	-1.9%	-14%	-9%
5	CCCCN(C)C(=O)C1CCC(CNS(=O)(=O)c2ccc3c(c2)CC(C)N3C(=O)C2CC2)CC1 (stereo not given)	.	3.4%	21%	0%
6	O=C(c1cc(COc2c(F)cccc2F)on1)N1CCC(c2ccccc2Cl)C1 (stereo not given)	3	-0.7%	-47%	-11%
7	CCOC(=O)C1=C(C)Nc2nc(C)nn2C1c1ccc(OCC)c(OC)c1 (stereo not given)	7	9.1%	0%	10%
8	CC(C(=O)O)n1cnc2sc3c(c2c1=O)CCCC3 (stereo not given)	-21	6.3%	0%	7%
9	COc1ccc(Cl)cc1S(=O)(=O)N1CCC(C(=O)NCC2CCCO2)CC1 (stereo not given)	.	-1.1%	-3%	9%
10	CCCOc1ccc(/C=N/Nc2ccccn2)cc1OC	-3	-4.5%	-47%	-9%
11	COc1ccc(S(=O)(=O)N(CC(=O)N/N=C/c2cccs2)c2ccc(C)cc2)cc1OC	-13	-3.2%	-1%	-11%
12	CS(=O)(=O)Cc1cccc(C(=O)NN(c2ccccc2)c2ccccc2)c1	.	3.2%	-1%	-10%
13	O=C(COc1ncnc2ccc(Br)cc12)NCc1ccco1	6	-0.8%	3%	0%
14	Cc1c(O)ccc(-c2[nH]ncc2-c2nc3ccccc3s2)c1O	-2	0.1%	0%	-9%
15	O=C1NCCOC(=O)[C@@H](Cc2ccc(F)cc2)C/C=C\C[C@@H]1CC(=O)N(CCO)Cc1ccccc1	.	2.9%	.	-16%
16	CC(=O)CCc1ccccc1	.	-3.1%	.	-8%
17	CNC(=O)NC(=O)C(C)N1CCN(C/C=C/c2ccccc2)CC1 (stereo not given)	10	-2.2%	-2%	1%
18	Cc1sc2ncnc(N3CCC(C(=O)N(C)CC(=O)Nc4ccc(Cl)c(C(F)(F)F)c4)CC3)c2c1C	.	-1.7%	.	11%
19	O=c1[nH]c(CN2CCC(c3nc4ccccc4s3)CC2)nc2sc3c(c12)CCC3	-16	.	-3%	.
20	CCOc1ccc(NC(=O)CSc2nncn2C)cc1	.	-2.1%	-8%	8%
21	Cc1cc(S(=O)(=O)N2CCN=C2c2ccccc2)c(C)cc1Cl	-7	-1.4%	-13%	-8%
22	C[C@H](NC(=O)c1nc[nH]c1C(=O)N[C@@H](Cc1ccccc1)C(=O)OCc1ccccc1)c1ccccc1	-14	-0.4%	1%	3%
23	O=C1OC(Nc2nc(-c3ccc(F)cc3)cs2)c2ccccc21 (stereo not given)	.	2.1%	27%	10%
24	O=C(N1CCN(c2cccc(Cl)c2)CC1)C1(c2cccs2)CCOCC1	8	-0.2%	-3%	11%
25	O=C(NCc1ccccc1Cl)c1ccc2nnsc2c1	1	0.6%	1%	-7%
26	Clc1ccc(-c2nnc(-c3cccc4ccccc34)o2)cc1	.	0.7%	.	3%
27	CC1CCCCC1NCC(=O)Nc1ccccc1-c1ccccc1 (stereo not given)	-17	-2.1%	-7%	-6%
28	NNC(=O)CCc1nc2ccc(O)cc2[nH]1	5	0.0%	-1%	-6%
29	COc1ccc2oc(=O)c(C(C)=O)cc2c1	4	?	-2%	-27%
30	CC1(C)Cc2c(C#N)c(SCc3nc4ccccc4[nH]3)nc(N3CCOCC3)c2CO1	0	?	-9%	?

The final three records of the section before lead into the next.
No.	Molecule	GLA inh pH 4.5	Rango complex inh	miR-21 reporter	Rango dissoc inh
28	NNC(=O)CCc1nc2ccc(O)cc2[nH]1	5	0.0%	-1%	-6%
29	COc1ccc2oc(=O)c(C(C)=O)cc2c1	4	?	-2%	-27%
30	CC1(C)Cc2c(C#N)c(SCc3nc4ccccc4[nH]3)nc(N3CCOCC3)c2CO1	0	?	-9%	?
31	Cc1nnc2n(Cc3ccccc3)c(=O)c3c4c(sc3n12)COC(C(C)C)C4 (stereo not given)	-9	1.9%	1%	7%
32	CCc1nc2n(n1)C(O)c1cc([N+](=O)[O-])ccc1S2 (stereo not given)	1	0.8%	-4%	5%
33	Cc1nc2ccc(NC(=O)c3ccc(Br)o3)cc2s1	6	-0.4%	-65%	-7%
34	COc1cccc(N2C(=O)CC(N3CCC(C(N)=O)(N4CCCCC4)CC3)C2=O)c1 (stereo not given)	-2	4.9%	-9%	-12%
35	c1cn(CCCNC2CCCCCCC2)cn1	.	-0.2%	.	6%
36	Cc1nn(C)c(C)c1/C=N/N=C1\CCC2C3CCc4cc(O)ccc4C3CCC12C (stereo not given)	-4	-1.3%	-3%	?
37	CCN(CC(=O)N1CCN(c2ccccc2)CC1)S(=O)(=O)c1ccc(C)cc1	2	3.1%	0%	?
38	Cc1ccc(NC(=O)N2CCC(NC(=O)c3ccco3)CC2)cc1	.	1.3%	2%	-17%
39	Cc1cc(C)cc(NC(=O)C2CCCN2S(=O)(=O)c2cccc3cccnc23)c1 (stereo not given)	.	3.7%	-23%	-7%
40	NC(=S)NNC(=O)c1ccccc1Cl	0	0.8%	-10%	1%
41	CC(=O)NC1C(OCc2ccccc2)OC(COC(C)=O)C(OC(C)=O)C1OC(C)=O (stereo not given)	.	-1.7%	-6%	-5%
42	Cc1ccc(C)c(-n2c(CNC(=O)c3ccco3)nnc2SCC(=O)Nc2nnc(C)s2)c1	-8	-0.4%	1%	12%
43	Cc1ccccc1Sc1ncnc2onc(C)c12	-1	1.3%	10%	-10%
44	CCOC(=O)Nc1ccc2c(COC(=O)CN(C)S(=O)(=O)c3ccc(C)cc3)cc(=O)oc2c1	.	-5.1%	.	9%
45	CCCCN(C(=O)c1ccccc1F)c1c(N)n(CCC)c(=O)[nH]c1=O	.	0.7%	8%	-20%
46	Cc1ccc(NC(=O)C2CCCN(S(=O)(=O)c3cnc[nH]3)C2)c(Br)c1 (stereo not given)	-4	0.3%	-18%	-18%
47	COC(=O)CSc1n[nH]c(=S)s1	2	-0.1%	-2%	-15%
48	CNC(=O)c1c(C)noc1C	-3	-0.4%	2%	2%
49	CCC(C)NC(=O)Cn1c(-c2ccccc2)cc(C(C)=O)c1C (stereo not given)	-16	-3.7%	-1%	23%
50	CCN(CC)C(=O)CN1C(=O)c2cccc3cccc(c23)C1=O	5	-1.6%	-3%	-4%
51	C=CCn1c(C(CCC(C)C)CC(C)(C)O)n[nH]c1=S (stereo not given)	-3	-2.2%	-5%	-13%
52	CC(NCc1nc2ccccc2n1C)C12CC3CC(CC(C3)C1)C2 (stereo not given)	1	-4.0%	3%	-11%
53	COC(=O)c1ccc(C[n+]2ccccc2)cc1	.	2.8%	-6%	-8%
54	Cc1cccc(Oc2coc3cc(OC(=O)c4cncc(Br)c4)ccc3c2=O)c1	.	1.3%	-32%	4%
55	O=C(OCC(=O)c1c[nH]c2ccccc12)c1ccco1	5	-4.5%	-24%	1%
56	CCOC(=O)C1CCCN(CCC(=O)Nc2ccccc2C)C1 (stereo not given)	-9	6.6%	-1%	4%
57	COc1ccc(N2CCN(C(=O)CSc3nc4nc(C)cc(C)n4n3)CC2)cc1	.	1.0%	.	-3%
58	CN(C1CCCCC1)C(CNS(=O)(=O)c1ccc(Cl)cc1)c1ccccc1 (stereo not given)	.	-1.7%	-1%	28%
59	CC(C)Oc1ccc(C(=O)O)c(C(=O)O)c1	-2	-2.5%	-1%	-3%
60	c1ccc(Cn2c(CNc3nc4ccccc4n3CCN3CCCCC3)nc3ccccc32)cc1	-6	-0.7%	8%	1%

(continued)
No.	Molecule	GLA inh pH 4.5	Rango complex inh	miR-21 reporter	Rango dissoc inh
61	COc1ccc(/C=c2\s/c(=C/C(=O)c3ccc(C)cc3)[nH]c2=O)cc1OC	-13	?	-11%	?
62	Cc1cccc(-c2c3c(=O)n(C)c(=O)n(C)c3cn2-c2ccc(O)cc2)c1	.	5.5%	.	5%
63	COc1cc(C(CC(=O)N2CCN(c3ccccc3)CC2)c2c(OC)cc(OC)c3ccc(=O)oc23)cc(OC)c1OC (stereo not given)	-7	1.0%	8%	-2%
64	COc1cc(-c2nnc(SCC(=O)O)n2-c2ccccc2)cc(OC)c1OC	.	-2.9%	0%	-8%
65	OCCCNc1cc(-c2ccnc(Nc3cccc(Cl)c3)n2)ccn1	4	?	?	-1%
66	O=C(CN(C(=O)Cn1nnc(-c2ccccc2F)n1)c1cccc2c1CCCC2)NCc1ccccc1	-15	?	16%	-7%
67	CC1CC(C)CN(CCCCOc2ccc([N+](=O)[O-])cc2)C1 (stereo not given)	-11	-0.1%	0%	8%
68	CCCCCn1c(C(Cc2ccccc2)NC(C)=O)nc2ccccc21 (stereo not given)	2	?	0%	10%
69	CC1(C)Cc2c(c(-c3ccccc3)nc3sc4c(=O)[nH]c(=S)[nH]c4c23)CO1	-2	-0.4%	0%	-8%
70	NC(=O)CSc1nnc(COc2ccccc2)n1C1CCCCC1	3	-0.3%	-1%	-7%
71	Cc1ccc(NS(=O)(=O)c2coc(C(N)=O)c2)cc1F	.	1.1%	-5%	1%
72	Cc1cccc(NC(=O)c2cc3c(=O)n4ccccc4nc3n(CC(C)C)c2=N)c1	10	0.3%	-1%	-11%
73	C=CCn1c(C)cc(-c2csc(NC(=O)C3CCN(c4ncnc5sc(C)c(C)c45)CC3)n2)c1C	.	-0.3%	.	-11%
74	CC1(C)N([O-])C2=C(CCCC2)[N+]1=O	10	-0.5%	0%	-17%
75	CCC1NC(=O)c2ccccc2N1c1cccc(Cl)c1 (stereo not given)	.	-2.2%	.	-14%
76	COCCCNC(=O)CN(c1cc([N+](=O)[O-])ccc1OC)S(C)(=O)=O	-1	2.6%	2%	15%
77	CC(=O)Nc1ccc(NCc2ccc(C)s2)cc1	.	5.4%	-37%	14%
78	O=C(/C=C/c1ccco1)NC(=S)Nc1cc(C(F)(F)F)ccc1N1CCOCC1	-6	1.2%	-3%	7%
79	COc1ccc(NC(=O)CSCC(=O)Nc2ccccc2N2CCCCC2)cc1	.	0.3%	.	-1%
80	CC(C)=CCNc1ncnc2c1c(C#N)cn2C1OC(CO)C(O)C1O (stereo not given)	.	-0.9%	.	-12%
81	O=C(NC1CC2CCCC(C1)N2Cc1ccccc1)c1cccc(Cl)c1 (stereo not given)	.	-0.3%	4%	-10%
82	Cc1ccc(C(=O)Nc2c(C)n(C)n(-c3ccccc3)c2=O)cc1	5	0.0%	1%	14%
83	O=C(NCc1cccnc1)C1CCCCN1S(=O)(=O)c1ccc(F)cc1 (stereo not given)	-2	1.8%	-3%	4%
84	CCN(CC)C(=O)C1=C(C)Nc2nnnn2C1c1cccnc1 (stereo not given)	-12	1.9%	-2%	-3%
85	COc1ccc(N2CCN(C(c3ccc4ncccc4c3)c3nnnn3C(C)C)CC2)cc1 (stereo not given)	-3	2.9%	-4%	-1%
86	O=C(NCCC1=CCCCC1)c1ccc(=O)oc1	1	-2.2%	-10%	4%
87	COc1ccccc1C(N)=S	9	0.0%	-4%	-5%
88	O=S(=O)(c1ccc(Br)cc1)N1CCN=C1SCc1cccnc1	5	0.1%	-3%	2%
89	Cc1cccc(C)c1N(CC(=O)NCc1ccc(F)cc1)C(=O)c1csnn1	-1	-1.4%	7%	26%
90	Cc1cccc(NC(=O)C23CCC(C)(/C(=N/O)C2)C3(C)C)c1 (stereo not given)	3	6.3%	0%	8%
91	O=C(NCC(=O)N(CC1CCCO1)C1(C(=O)NC2CCCCC2)CCCCC1)c1ccccc1 (stereo not given)	10	-3.2%	4%	-3%
92	COc1cc(NC(=O)c2ccc(N3CCCC3=O)cc2)cc(OC)c1	.	-0.1%	.	3%

Screening data (PubChem BioAssay)

This is a subset. The share of hits here may be higher or lower than overall.
